High-throughput results: PubChem, National Center for Advancing Translational Sciences (NCATS)
Marburg entry inh: qHTS for inhibitors of binding or entry into cells for Marburg Virus | Potency, µM (highest dose often 37.8 µM), without a hit: at the highest dose activity change, negative = inhibition, hits mostly inhibitors | Marburg virus pseudotyped entry inhibition, cell reporter; control for the full effect not named in the record; about a third of the inactives were read at about 46 µM | 300,000 tested, 1.8% active; active = well fitted inhibition curve with a large enough effect; inconclusive = small, poorly fitted or top-dose-only effect, or effect the other way; inactive = flat fitted curve, though single readings scatter; tested in HEK293 cells; about a fifth of its hits are not listed in these tables; also: % is scaled to controls: 0 for no effect and ±100 for the full control effect; luciferase read-out
Cruzain inh noDet: qHTS Assay for Promiscuous and Specific Inhibitors of Cruzain (without detergent) | Cruzipain (Trypanosoma cruzi), P25779 | purified cruzain, Z-FR-AMC fluorescence, no detergent | Potency, µM, for the others: max response, negative = inhibition, hits mostly inhibitors | 200,000 tested, 2.3% active | AID 1476, 2009;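 also: plate controls were enzyme without inhibitor for no effect and buffer without enzyme for full effect; nearly all actives have a fitted effect of over 40% in size; top concentration of the series not given in the record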
Target sequence (P25779 123-467 limits assumed): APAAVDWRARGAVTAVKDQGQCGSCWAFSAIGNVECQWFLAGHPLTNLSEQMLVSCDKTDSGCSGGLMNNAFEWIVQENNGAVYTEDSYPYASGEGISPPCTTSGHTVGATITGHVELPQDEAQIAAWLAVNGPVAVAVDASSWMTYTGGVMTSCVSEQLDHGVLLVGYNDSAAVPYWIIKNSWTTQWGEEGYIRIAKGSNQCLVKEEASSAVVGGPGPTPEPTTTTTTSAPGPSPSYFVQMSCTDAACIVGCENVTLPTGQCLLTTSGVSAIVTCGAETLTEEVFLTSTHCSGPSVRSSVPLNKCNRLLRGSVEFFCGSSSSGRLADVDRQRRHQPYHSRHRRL
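Purified cruzain at 1.5 nM, pre-incubated 15 min with compound at room temperature in 100 mM sodium acetate pH 5.5, 5 mM DTT, 0.00005% Triton X-100. Reaction started with 2 uM Z-FR-AMC; AMC fluorescence increase over 60 s gives rate.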
RE007 growth inh: qHTS Assay for Inhibitors of the HIV-1 protein Vpr; S. pombe RE007 Vpr strain, BacTiter-Glo ATP luminescence, 24 h; control for the full effect not named in the record; Potency, µM (top dose mostly 92.2 µM), for the others: top-dose activity change, negative = less growth; 360,000 tested, 0.21% active; AID 651644, 2012; active = well fitted falling curve with a large enough effect; inconclusive = small, poorly fitted or top-dose-only effect; inactive = no such curve, though single readings can be large or run the other way;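 also: % is scaled to controls: 0 for no effect and ±100 for the full control effect; nearly all actives have a fitted effect of over 50% in size; the assay follows cell death caused by Vpr and the record does not say whether a fall means rescue or toxicity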
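Fission yeast strain RE007, carrying one chromosomally integrated HIV-1 vpr copy, was seeded at OD 0.01 in PMG+AL medium with 23 nL pinned compound. After 24 h at 30 °C and 99% humidity, viability was read by BacTiter-Glo luminescence.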
NS1 inh: qHTS Assay for Inhibitors of Influenza NS1 Protein Function; S. cerevisiae slowed by influenza A NS1, growth recovery by OD600; Potency, µM (doses to about 46.1 µM), inactives show top-dose activity, positive = more growth; 270,000 tested, 0.4% active; AID 2326, 2010; active means well fitted rising curve with a large enough effect; inconclusive means small, poorly fitted or top-dose-only effect; inactive means no such curve, though single readings can be large or run the other way; also: nearly all actives have a fitted effect of over 50% in size
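Growth recovery, yeast-based: influenza A NS1 expressed in S. cerevisiae causes slow growth, and suppressors are detected by OD600. The parent strain without NS1 is used as positive control.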
Cruzain inh Det: qHTS Assay for Promiscuous and Specific Inhibitors of Cruzain (with detergent); 200,000 tested, 0.43% active; purified cruzain, Z-FR-AMC fluorescence, 0.01% Triton; Cruzipain (Trypanosoma cruzi), P25779; AID 1478, 2009; Potency, µM, for the others: max response, negative = inhibition, hits mostly inhibitors;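 also: plate controls were neutral wells for no effect and buffer without enzyme for full effect; nearly all actives have a fitted effect of over 40% in size; top concentration of the series not given in the record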
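Compounds were screened in titration against cruzain (1.5 nM) with 0.01% Triton X-100 to counter colloidal aggregation. Activity was the AMC fluorescence increase over 60 s after adding 2 uM Z-FR-AMC at pH 5.5.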
SARS PLpro yeast: qHTS of Yeast-based Assay for SARS-CoV PLP; S. cerevisiae expressing SARS-CoV PLpro, growth rescue; control for the full effect not named in the record; Potency, µM (highest dose often 32.9 µM), inactives show at the top dose activity, positive = growth rescue; 330,000 tested, 0.19% active; AID 485353, 2010; active means well fitted rising curve with a large enough effect; inconclusive means small, poorly fitted or top-dose-only effect; inactive means no such curve, though single readings can be large or run the other way; also: 0% is about no effect; nearly all actives have a fitted effect of over 55% in size; growth read by luminescence after 48 h
Lassa entry inh: qHTS for Inhibitors of binding or entry into cells for Lassa Virus | 300,000 tested, 1.2% active | Potency, µM (highest dose often 37.9 µM), for inactives: at the highest dose activity change, negative = inhibition, most hits filed as inhibitors | Lassa virus pseudotype entry inhibition, cell reporter; control for the full effect not named in the record | AID 540256, 2011; active means well fitted inhibition curve with a large enough effect; inconclusive means small, poorly fitted or top-dose-only effect, or effect the other way; inactive means flat fitted curve, though single readings scatter; tested in HEK293 cells; also: % is scaled to controls: 0 for no effect and ±100 for the full control effect; nearly all actives have a fitted effect of over 50% in size; luciferase read-out
2A StopGo: High Throughput Screening for Foot and Mouth Disease Virus Antivirals; human cells with a luciferase reporter of 2A StopGo recoding; control for the full effect not named in the record; Potency, µM (titrated, usually from 57.9 µM), inactives show at the highest dose signal change, negative = less light; 410,000 tested, 1.2% active; AID 1159524, 2015; active = well fitted falling curve with a large enough effect; inconclusive = small, poorly fitted or top-dose-only effect; inactive = no such curve, though single readings can be large or run the other way; tested in HEK293T cells; also: % is scaled to controls: 0 for no effect and ±100 for the full control effect; nearly all actives have a fitted effect of over 45% in size; luciferase light after 4 h
The depositor's hits bear a star; u = inconclusive; x = no result given; & = joins results of further samples; [ ] = dose if it differs, or a comment. Unless noted, calls follow the shape of the dose curve; as a rule, active = well fitted curve in the direction sought with a large enough effect; inconclusive = small, poorly fitted or top-dose-only effect, or another doubt; inactive = no such curve, though single readings can be large; an effect the other way counts as inactive or inconclusive. Potency is read from the fitted curve at half-maximal effect.

Structure,Cruzain inh Det,NS1 inh,RE007 growth inh,Cruzain inh noDet,Marburg entry inh,2A StopGo,Lassa entry inh,SARS PLpro yeast
C=CCNc1nc(NCCN2CCOCC2)nc(N2CCOCC2)n1,4.8%,0.3%,-1.6%,-3.9%,18.9%[46.1 µM],9.7%,-0.1%,1.5%
CC(C)c1ccc(NC(=O)NN2CCOCC2)cc1,x,x,3.3%,x,u,30.9%[activator],-1.4%,1.7%
O=c1cc(CSc2nc3ccccc3c(=O)[nH]2)c2ccc(O)cc2o1,x,2.2%,14.3%,x,u,-20.1%,-19.7%,-4.2%
COC(=O)c1ccc(NC(=O)CSc2nnnn2C2CCCCC2)cc1,-3.0%,-2.2%,5.8%,u,-11.2%,2.7%,20.4%,-6.5%
COc1ccc(C2COC(=O)C2=N)c(NC(=O)c2ccc(Cl)cc2)c1 (stereo unspecified),-2.0%,-3.8%,1.2%,-0.2%,23.2%,-19.7%,0.0%,-33.6%
O=C(Nc1ccc(F)cc1)c1nsc(Cl)c1Cl,-3.0%,1.5%,-9.2%,-0.2%,-0.2%,38.7%[activator],u,-6.6%
COc1cccc(CNC(=O)CCC2CCCN(C(=O)c3ccc(OC)o3)C2)c1 (stereo unspecified),x,2.9%,-1.4%,x,x,33.4%[activator],x,-0.4%
CCCN(CC1CCCO1)C(=O)CCc1nnc(-c2cc(C)on2)o1 (stereo unspecified),x,2.7%,-15.2%,x,u,19.7%,29.8%[46.1 µM],-0.4%
O=C(O)CCN1/C(=C/C=Nc2ccccc2)Oc2ccccc21,-4.6%,4.3%,3.3%,-9.4%,22.3%,-2.9%,-5.7%,1.8%
COCCCNS(=O)(=O)c1ccc(N2CCCCS2(=O)=O)cc1,-0.7%,x,x,3.7%,x,-16.6%,-5.1%[46.1 µM],x
CCCC(=O)Nc1ccc(Oc2ccc(NC(=O)CCC)cc2)cc1,-26.2%,14.8%,-0.9%,-12.6%,1.8%,-5.4%,2.0%,10.9%
Cc1ccccc1Oc1nc2c(C)cccn2c(=O)c1/C=C(\C#N)C(=O)Nc1c(C)n(C)n(-c2ccccc2)c1=O,-1.0%,-4.8%,x,u,u,31.6µM*,u,-13.3%
O=c1c2cn(Cc3ccc(F)cc3)c3ccc(F)cc3c-2nn1Cc1ccc(F)cc1,x,-0.7%,-14.0%,x,-7.8%[46.1 µM],-0.5%,11.5%,0.8%
CCOC(=O)C1(CCc2ccccc2)CCN(C(=O)CN2C(=O)CSC2=O)CC1,x,1.9%,-0.3%,x,u,14.7%,u,-1.4%
Cc1cc(SCC(=O)Nc2c(C)n(C)n(-c3ccccc3)c2=O)nc2ccccc12,x,6.7%,6.5%,x,-11.5%,-27.5%,-2.3%,u
CC(C)CN(C(=O)CN1CC=C(c2ccccc2)CC1)c1c(N)n(CC(C)C)c(=O)[nH]c1=O,x,x,-4.2%,x,-10.6%,-5.4%,-1.5%[46.1 µM],0.8%
O=C(Nc1cc2c(cc1C(=O)c1ccccc1)OCCO2)c1ccc(Br)cc1,0.1%,x,x,5.6%,x,-20.0%,2.4%[46.1 µM],x
CC(NC(=O)C1CCC1)c1ccc(Br)cc1 (stereo unspecified),1.6%,7.8%,17.3%,0.2%,3.7%,-18.9%,15.0%,-8.8%
O=C(CCC(=O)Nc1ccccc1Cl)N/N=C/c1c[nH]c2ccccc12,-10.9%,5.5%,3.1%,-20.2%,-11.1%,11.7%,u,7.7%
O=C(O)CC(CP(=O)(c1ccccc1)c1ccccc1)C(=O)O (stereo unspecified),2.9%,-2.3%,3.7%,-1.6%,-0.8%,-8.8%,-2.0%,-5.0%
Cc1cc(-c2ccccc2)cc(=O)[nH]1,x,x,1.1%,x,1.2%,17.8%,19.9%[46.1 µM],x
Cc1ccc(NC(=S)N2CCCCC2)cc1C,x,-2.8%,5.5%,x,6.9%[46.1 µM],50.3%[activator],-5.4%,18.2%
CCc1ccccc1NC(=O)CN(c1ccccc1OC)S(=O)(=O)c1ccc(C)cc1,-6.6%,x,x,4.1%,-17.4%[46.1 µM],-9.7%,1.0%[46.1 µM],x
Cc1c(NC(=O)c2cc(=O)[nH]c3ccccc23)c(=O)n(-c2ccccc2)n1C,0.9%,2.2%,16.1%,2.7%,12.5%,29.6%,22.7%,0.5%[6.58 µM]
COC(=O)c1ccc(C(=O)NC2CC(C)(C)Cc3c2cnn3-c2ccc(F)cc2)nc1 (stereo unspecified),x,4.1%,20.3%,x,-10.5%,11.6%,u,-9.2%
Cc1noc(C)c1COc1ccc(C(=O)N2CCC(C)CC2)cc1,x,x,48.0%,x,u,-15.6%,4.8%,6.9%
O=C(CCc1ccccc1)N(Cc1cccnc1)c1nc2c(F)cc(F)cc2s1,0.7%,x,x,-0.5%,x,0.0%,u,x
COc1ccc(N)c2c1C(=O)c1ccccc1C2=O,-9.9%,-31.6%,u,-5.7%,0.3%,-5.5%,u,-97.0%
CC(C)(C)SCCNC(=O)c1cccc([N+](=O)[O-])c1,1.1%,2.5%,4.9%,1.0%,u,3.6%,21.8%,1.7%
CC1=C(C(=O)OCC2CCCO2)C(c2coc3ccc(Cl)cc3c2=O)C2=C(CCCC2=O)N1 (stereo unspecified),x,x,9.7%,x,3.4%[46.1 µM],-4.1%,3.2%,4.5%

Additional entries
Structure,Cruzain inh Det,NS1 inh,RE007 growth inh,Cruzain inh noDet,Marburg entry inh,2A StopGo,Lassa entry inh,SARS PLpro yeast
CC(=O)N(C(C)=O)n1c(C)nc2sc3c(c2c1=O)CCCC3,x,7.5%,25.2%,x,x,-8.3%,x,-1.3%
O=C(c1cccc(Cl)c1)N1CCN(CCCc2ccccc2)CC1,x,4.3%,-4.4%,x,x,-11.1%,x,-1.6%
O=C(CN1c2cccc3cccc(c23)S1(=O)=O)Nc1c(F)c(F)c(F)c(F)c1F,x,x,16.3%,x,3.2%[46.1 µM],-2.2%,16.8%[46.1 µM],-0.4%
CCn1ncc2c1C(=O)NC1c3ccccc3C(=O)N21 (stereo unspecified),2.9%,1.0%,-1.6%,-9.8%,6.6%,3.4%,2.3%,-3.3%
COc1ccc(NC(=O)c2sccc2C)cn1,x,x,-22.6%,x,u,78.4%[activator],-0.6%,-1.6%
c1ccc(Cn2nnc3c(NCC4CCCO4)ncnc32)cc1 (stereo unspecified),7.1%,2.0%,2.9%,2.2%,23.1%,-6.2%,4.1%,1.8%
COCCCNc1oc(-c2cccs2)nc1S(=O)(=O)c1ccc(C)cc1,x,1.9%,0.5%,x,-20.2%[46.1 µM],35.7%[activator],-12.4%,-0.9%
O=C(CSc1nnc(NC2CCCCC2)s1)NN1C(=O)NC2(CCCCC2)C1=O,-3.4%,-4.2%,x,5.0%,u,6.5%,-14.4%,11.1%
O=CNCC(=O)NCCc1ccc(Cl)cc1,-0.6%,-0.1%,-14.5%,-0.6%,0.8%,x,-11.3%,-2.7%
CC(=O)c1cccc(NC(=O)C2CCCN(c3nnc(-n4cccc4)s3)C2)c1 (stereo unspecified),-5.6%,x,x,-1.3%,x,0.0%,0.4%[46.1 µM],x
N#CC(C#N)=Cc1ccc(C=C(C#N)C#N)cc1,x,-38.6%,-19.0%,x,u,u,0.7%[46.1 µM],0.7%
Cc1ccc(Cl)cc1NC(=S)N(CCCN1CCN(C)CC1)Cc1cccs1,x,-1.0%,-2.1%,x,u,-8.0%,x,1.8%
CCc1ccccc1N(CC(=O)N1CCN(c2ccccc2)CC1)S(C)(=O)=O,2.0%,-6.8%,3.5%,21.2%,-7.5%[46.1 µM],-18.1%,-1.8%,5.1%
COc1ccc(C2=C(c3ccc([N+](=O)[O-])cc3)C(=O)OC2)cc1,x,-2.0%,13.9%,x,-3.5%[46.1 µM],-6.1%,-7.2%,1.0%
CC(=O)c1cn(CC(=O)Nc2ccccc2F)c2ccccc12,x,-8.4%,-3.2%,x,u,0.0%,u,-5.1%
O=C(NC(c1ccc(Cl)cc1)c1c(O)ccc2ccccc12)c1ccccc1 (stereo unspecified),-2.3%,u,8.6%,u,u,u,u,-1.6%
CC(NCc1ccccc1Cl)C(=O)Nc1ccc(C#N)cc1 (stereo unspecified),x,x,-0.8%,x,2.0%[46.1 µM],0.2%,-1.7%,-7.5%
CC1CCN(S(=O)(=O)c2ccc(NC(=O)CN3CCN(c4ccccc4)CC3)cc2)CC1,-4.9%,u,-3.2%,u,u,x,u,-1.5%
COc1ccc(C(=O)c2sc3nc(C)cc(-c4cccs4)c3c2N)cc1,-5.3%,14.8%,-2.2%,u,-5.2%,-14.7%,4.6%,17.8%
COc1cccc(NC(=O)CCS(=O)(=O)c2cc3c(cc2Cl)NC(=O)CO3)c1,x,-0.3%,-9.2%,x,x,-6.5%,x,-4.9%
FC(F)(F)C(F)(F)c1nnc2ccc(-n3ccnc3)nn12,x,x,1.2%,x,2.9%,4.1%,2.1%,-2.6%
CCc1nc(N2CCCCC2C)c2oc3ccccc3c2n1 (stereo unspecified),-5.9%,-101.7%,5.2%,-15.8%,18.3µM*,u,u,x
CCCC(=O)NC(Nc1ccc(S(=O)(=O)Nc2ncccn2)cc1)(C(=O)OCC)C(F)(F)F (stereo unspecified),0.9%,-4.9%,-1.9%,-11.1%,6.2%&6.2%,6.8%,5.0%,-3.2%
O=C(Nc1ccc(Cl)cc1)C1CCCCN1S(=O)(=O)c1ccccc1 (stereo unspecified),x,x,32.7%,x,u,u,-18.1%,-17.4%
